# Mtb bLac sens = beta-lactam sensitization of Mtb H37Rv, H37Rv; M. tuberculosis H37Rv growth with meropenem, percent inhibition; hits of this screen are not shown here; inhibition, % at 25 µM; 330,000 tested, 0.27% active;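 active = about 74% or more and at least 40 points above the plate without the antibiotic, then above 30% in a dose series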;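 note: growth measured after seven days incubation then overnight dye step; 0% = bacteria only wells and 100% = bacteria with antibiotic; twin plates without the antibiotic show which effects depend on it; some results filed as inactive read as strong as hits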
# Arbovirus anti = antivirals against arbovirus infection, primary screen, cell-based, full library, 10K replicate subset. 200,000 tested, 0.37% active. arbovirus infection cell-based antiviral screen. inhibition, % at 10 µM;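 active = inhibition from about 30%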;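 note: bluetongue infection of BSR cells; cell survival read as ATP light after 72 h; 0% = infected wells without compound and 100% = uninfected wells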
# RecA intein inh = Mtb RecA intein splicing inhibitors, primary screen, biochemical, fluorescence, HTS; 290,000 tested, 0.75% active; cell-free RecA intein splicing; inhibition, %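 (about 9 µM by stock and volumes)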; in the data active = inhibition above about 30%;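 note: 0% = vehicle wells and 100% = reference inhibitor control wells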
# Target sequence (P9WHJ3 whole entry, looked up): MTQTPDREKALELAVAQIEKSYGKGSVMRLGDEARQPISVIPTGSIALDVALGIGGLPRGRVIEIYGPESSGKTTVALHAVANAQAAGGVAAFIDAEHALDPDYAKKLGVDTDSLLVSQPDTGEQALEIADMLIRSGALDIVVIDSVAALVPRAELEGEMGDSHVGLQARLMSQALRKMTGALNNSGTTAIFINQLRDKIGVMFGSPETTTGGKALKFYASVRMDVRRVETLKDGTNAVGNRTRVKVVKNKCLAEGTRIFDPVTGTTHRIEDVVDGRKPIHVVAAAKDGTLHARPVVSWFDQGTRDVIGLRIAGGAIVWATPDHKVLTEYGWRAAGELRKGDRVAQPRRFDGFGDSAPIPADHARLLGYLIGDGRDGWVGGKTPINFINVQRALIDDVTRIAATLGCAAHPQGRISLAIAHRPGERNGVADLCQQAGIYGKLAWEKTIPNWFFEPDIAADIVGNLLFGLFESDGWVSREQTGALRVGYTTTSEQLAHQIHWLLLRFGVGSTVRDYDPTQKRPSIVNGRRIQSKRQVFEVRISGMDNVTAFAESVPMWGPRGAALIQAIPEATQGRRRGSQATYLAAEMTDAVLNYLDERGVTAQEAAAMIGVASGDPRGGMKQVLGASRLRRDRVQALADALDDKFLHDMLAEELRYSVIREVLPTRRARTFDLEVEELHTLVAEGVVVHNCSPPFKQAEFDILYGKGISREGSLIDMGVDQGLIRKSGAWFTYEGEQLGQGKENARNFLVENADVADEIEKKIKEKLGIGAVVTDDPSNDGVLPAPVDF
# YopH PTP inh = YopH tyrosine phosphatase inhibitors, primary screen, biochemical, fluorescence Ex485/Em525. 140,000 tested, 0.16% active. inhibition, %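 (about 10 µM by stock and volumes)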. YopH tyrosine phosphatase [Yersinia enterocolitica];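 active = inhibition of 50% or more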;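 note: controls were vehicle for no effect and minimum signal wells for full effect; inactives centre near -20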
# Mtb growth = M. tuberculosis H37Rv growth inhibitors, H37Rv strain (AID 1626); inhibition, % at 10 µM; hits with a dose series show IC50 in µM; M. tuberculosis H37Rv growth inhibition; higher % means a stronger effect; 220,000 tested, 0.95% active;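 active = confirmed in a dose series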;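 note: bacteria incubated seven days before Alamar blue readout; 0% = bacteria only wells and 100% = bacteria with antibiotic wells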
# Arbovirus anti repeat = further read-out of Arbovirus anti, marked with its call; inhibition, %; measured here: 10K subset replicate screen; many hits read low in the repeat;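 first of two repeat runs on a subset; 0% = infected and 100% = uninfected wells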
# Active calls of the source: *; . = no result given.
SMILES,Mtb bLac sens,Arbovirus anti,RecA intein inh,YopH PTP inh,Mtb growth,others
O=C(Nc1nnc(SCC(=O)N2CCOCC2)s1)C1CC(=O)N(c2ccc(F)cc2)C1 (stereo not drawn),-6,.,3.3,.,.,
Cc1ccc(-n2cnnn2)c(S(=O)(=O)N2CCOCC2)c1,-1,0,-2.0,0,-1%,
COc1ccccc1Nc1nc(N(C)c2ccccc2)nc(N)c1[N+](=O)[O-],7,.,-1.4,.,.,
CC12CC3CC(C)(C1)CC(C(=O)N1CCN(C(=O)C4CCCO4)CC1)(C3)C2 (stereo not drawn),-8,.,-1.1,.,.,
Cc1cc(NC(=O)C2CCC2)n(-c2ccccn2)n1,-5,7,.,-38,2%,
O=C(CN(c1ccc2c(c1)OCCO2)S(=O)(=O)c1ccccc1)NCc1ccco1,-4,-4,-1.8,-19,-4%,
O=C1c2ccccc2CN1C(CO)c1ccccc1 (stereo not drawn),-4,.,0.5,.,.,
COC(=O)C1(C)Nc2ccccc2C(=O)N1c1ccccc1OC (stereo not drawn),5,3,0.8,-20,.,Arbovirus anti repeat=1
O=C(Nc1ccc(-c2nc3ccccc3s2)cc1)C1=COCCO1,5,0,1.3,-25,1%,
Cc1ccc2nsnc2c1S(=O)(=O)N1CCN(Cc2ccc3c(c2)OCO3)CC1,-3,-9,1.8,-5,-3%,
Cc1cccc(C)c1NC(=S)NN(Cc1ccccc1)c1ccccc1,-9,-5,-2.1,11,2%,
CCN(C(=O)COc1cc(=O)n(CC)c2ccccc12)c1cc(Cl)ccc1OC,-3,-5,4.0,-41,0%,
CC12CCC(=O)N1C(C(=O)Nc1ccc(F)c(F)c1F)CS2 (stereo not drawn),2,.,-1.9,.,.,
Cc1ccc(C)c(NS(=O)(=O)c2ccc3c(c2)NC(=O)CCS3)c1,-3,.,1.4,.,.,
Cc1ccc(N(Cc2ccccc2)C(=O)c2cccc(S(=O)(=O)N3CCOCC3)c2)cc1,-6,.,4.7,.,.,
COc1ccc(COC(=O)c2nc3nc(C)cc(C)n3n2)cc1F,-10,-4,-0.9,-33,-6%,
Cc1nc2ccc([N+](=O)[O-])cc2c(=O)n1Cc1ccc(Br)cc1,-1,.,2.0,.,.,
CCOC(=O)c1c(NC(=O)c2ccncc2)sc(C)c1C,3,-6,-1.5,.,-1%,
O=C(c1ccccc1)N1CCN(c2ccc([N+](=O)[O-])c(NCC3CCCO3)c2)CC1 (stereo not drawn),-5,-4,3.0,.,4%,
COC(=O)c1ccc(COc2ccc(/C=N/Nc3cccc(C(=O)O)c3)cc2)cc1,63,.,5.7,.,-3%,
COc1ccccc1Cn1nc(C(=O)O)c2ccccc2c1=O,2,.,-1.1,.,.,
CCN1CCN(c2nc3ccccc3n3cnnc23)CC1,-1,.,3.8,.,-1%,
CCC(C)NC(=O)CCn1ccc2cc(S(=O)(=O)N3CCCC3)ccc21 (stereo not drawn),-6,.,-4.8,.,.,
COc1cc(Cl)c(C)cc1NC(=O)CNC(=O)Cn1cnc2ccccc2c1=O,5,4,-1.4,-19,-3%,
COc1cc2ccccc2cc1C(=O)OCC(=O)N(CC(C)C)c1c(N)n(Cc2ccccc2)c(=O)[nH]c1=O,1,.,0.5,.,.,

# Reprinted at random: 2 records from the list, in no set order.
SMILES,Mtb bLac sens,Arbovirus anti,RecA intein inh,YopH PTP inh,Mtb growth,others
Cc1ccc(C)c(NS(=O)(=O)c2ccc3c(c2)NC(=O)CCS3)c1,-3,.,1.4,.,.,
CCN(C(=O)COc1cc(=O)n(CC)c2ccccc12)c1cc(Cl)ccc1OC,-3,-5,4.0,-41,0%,

# Part of the list above in order of length of the SMILES, highest first:
SMILES,Mtb bLac sens,Arbovirus anti,RecA intein inh,YopH PTP inh,Mtb growth,others
CC12CC3CC(C)(C1)CC(C(=O)N1CCN(C(=O)C4CCCO4)CC1)(C3)C2 (stereo not drawn),-8,.,-1.1,.,.,
CC12CCC(=O)N1C(C(=O)Nc1ccc(F)c(F)c1F)CS2 (stereo not drawn),2,.,-1.9,.,.,
COc1ccccc1Cn1nc(C(=O)O)c2ccccc2c1=O,2,.,-1.1,.,.,

# The listing picks up with the 2 entries that preceded the break.
SMILES,Mtb bLac sens,Arbovirus anti,RecA intein inh,YopH PTP inh,Mtb growth,others
COc1cc(Cl)c(C)cc1NC(=O)CNC(=O)Cn1cnc2ccccc2c1=O,5,4,-1.4,-19,-3%,
COc1cc2ccccc2cc1C(=O)OCC(=O)N(CC(C)C)c1c(N)n(Cc2ccccc2)c(=O)[nH]c1=O,1,.,0.5,.,.,
O=C(COC(=O)[C@@H]1CC(O)CN1S(=O)(=O)c1ccccc1[N+](=O)[O-])c1ccccc1 (stereo partly drawn),1,3,-0.1,.,1%,
CC1Cc2cc(/C(O)=C3\C(=O)C(=O)N(CCN4CCOCC4)C3c3ccccc3F)ccc2O1 (stereo not drawn),-3,2,-1.6,-33,6%,
Cc1cc(C)c2cc(CN(Cc3ccc4c(c3)OCO4)Cc3nnnn3Cc3ccco3)c(=O)[nH]c2c1,52,-21,9.8,-125,16%,
Cc1cc(Cl)c2oc(C(=O)N3CCN(c4ccncc4)CC3)c(C)c2c1,64,.,-0.3,.,.,
[O-]/[N+](=C/c1ccc(F)cc1)c1ccc(Cl)cc1,-2,2,-8.3,24,-10%,
CNC(=O)c1c(NC(=O)C2=COCCO2)sc2c1CCN(C(=O)OC)C2,-6,.,-1.5,.,.,
CC(C)(C)NC(=O)C(c1ccc(O)cc1)N(Cc1ccco1)C(=O)Cn1nnc(-c2cccs2)n1 (stereo not drawn),14,8,3.6,-62,-1%,
COC(=O)c1c(C(=O)OC)n(CCCN)c2ccc(C)cc12,-1,-11,8.8,-20,-4%,
O=C(COc1ccc(Br)cc1)N1CCc2ccccc2C1,-3,-1,-0.5,.,6%,
N/C(=N\OC(=O)C(c1ccccc1)c1ccccc1)c1ccncc1,-1,.,3.4,.,8%,
CC(=O)CSc1nnc(Cc2ccc3c(c2)OCO3)o1,0,-4,0.6,-13,-13%,
CCN(CC(=O)Nc1c(F)cccc1F)C(=O)c1cc(C)oc1C,-1,.,1.2,.,.,
COc1ccc(CN2C(=O)[C@H]3Cc4c([nH]c5ccccc45)C(C)(C)N3C2=O)cc1,98,.,9.8,.,10%,
CCCCC(c1nnnn1CC1CCCO1)N1CCN(c2cccc(C)c2C)CC1 (stereo not drawn),-6,-2,9.2,-54,-2%,
COc1ccc(C(=O)c2sc(Nc3ccccc3)nc2N)cc1OC,6,.,-2.4,.,.,
COc1ccc(NC(=O)[C@H](CCS(C)(=O)=O)N2Cc3ccccc3C2=O)c(OC)c1,-10,3,5.7,-28,2%,Arbovirus anti repeat=-3
CCOC(=O)c1sc2nc(C)nc(NCc3ccccc3OC)c2c1C,2,.,2.9,.,.,
O=C(CCN1C(=O)CSC1=O)Nc1ccccc1,7,1,1.6,-29,-11%,
CCOC(=O)c1c(S(=O)(=O)NCC(=O)NCc2ccc(C)cc2)c(C)n(C)c1C,-1,.,-0.9,.,.,
Cn1c(=O)c2c(ncn2CC(O)CO)n(C)c1=O (stereo not drawn),-6,0,-1.8,-24,-5%,
CCOc1nnc(C)c2c(C)n(-c3cccc(OC)c3)nc12,-15,13,-1.5,-27,-3%,
O=C(CN1CCOCC1)Nc1ncc(Cc2cccc(Cl)c2)s1,34,1,0.6,-21,10%,
N[C@@H](CO)c1nnc([C@H](CC(=O)O)NC(=O)C2CCNCC2)o1,1,5,-0.7,.,-14%,
NC(=O)N/N=C1\c2ccccc2-c2c(C(N)=O)cccc21,-5,.,0.5,.,.,
C=CCNC(=S)NNC(=O)c1ccc(OCC(C)C)cc1,-5,-9,4.9,-11,2%,
# Later entries.
SMILES,Mtb bLac sens,Arbovirus anti,RecA intein inh,YopH PTP inh,Mtb growth,others
CN(C(=O)c1ccc(S(=O)(=O)N2CCOCC2)cc1)C1CCS(=O)(=O)C1 (stereo not drawn),-2,.,0.5,.,.,
Cc1cc(-c2nnc3n2N=C(C(C)(C)C)CS3)n[nH]1,-5,2,.,-2,-4%,
O=C(c1ccc(Cl)c(S(=O)(=O)N2CCCC2)c1)N1CCN(c2ncccn2)CC1,-5,10,1.6,.,-3%,
COc1ccccc1NC(=O)CSc1nc(=O)n(Cc2ccncc2)c2c1CCCC2,0,.,-3.1,.,.,
O=C1C(=O)N(CCN2CCOCC2)C(c2cccnc2)/C1=C(/O)c1ccc(Cl)cc1 (stereo not drawn),2,-4,-0.1,.,-4%,
Cn1nc(-c2ccccc2)cc1NC(=O)Nc1ccc(F)cc1,-14,.,1.5,.,-2%,
CC1=CCC2C(=O)N(c3ccc(C)c(Br)c3)C(=O)C2C1 (stereo not drawn),0,-4,-1.7,-20,-3%,Arbovirus anti repeat=5
COc1ccc(NC(=O)C2CCN(C(=O)C3CC(=O)N(c4ccc(C)cc4)C3)CC2)c(OC)c1 (stereo not drawn),-16,.,2.1,.,.,
O=C(c1ccc(Br)s1)N1CCN(c2ncccn2)CC1,-2,1,-0.3,-11,-7%,
COc1ccccc1/C=N/NC(=O)c1ccc(NC(=O)c2ccccc2Br)cc1,2,-1,-4.5,-29,-4%,
CCOCCCNC(=O)c1ccc2nc(-c3ccc(OC)c(OC)c3)c(-c3ccc(OC)c(OC)c3)nc2c1,-1,.,10,.,.,
O=C(O)CSCC(=O)NC1CCCc2ccccc21 (stereo not drawn),-3,.,-0.4,.,1%,
C=C(C)Cn1c(=O)n(CC2CS2)c2ccccc21 (stereo not drawn),1,18,2.0,-8,2%,
C=CCNC(=S)NNC(=O)c1ccc([N+](=O)[O-])cc1,7,2,2.6,.,6%,
COc1cc(NS(=O)(=O)c2ccccc2)ccc1-n1nc(C)cc1C,-1,4,1.4,-26,4%,
CCC(=O)N1c2ccc(S(=O)(=O)NCc3ccco3)cc2CC1C (stereo not drawn),-3,.,-0.1,.,.,
COc1cccc(Cn2c(-c3cccs3)noc2=O)c1,-1,0,0.4,-15,3%,
CC(=Nc1ccc2c(c1)CCC2)c1c(O)n(C2CCCCC2)c(=O)[nH]c1=O,35,-4,-2.9,-18,-1%,
Cc1ccc2cc(C(c3nnnn3Cc3ccccc3)N3CCN(c4ccccc4)CC3)c(=O)[nH]c2c1 (stereo not drawn),53,7,-0.7,-16,-2%,
CCc1ccccc1NC(=O)C1CCCN(c2nn3c(=O)cc(C)nc3s2)C1 (stereo not drawn),3,.,-0.7,.,.,
COc1ccc(NC(=O)CN2C(=O)CSC(C)C2=O)c(OC)c1 (stereo not drawn),-2,-12,0.8,-15,-3%,
O=C(CCCn1cnc([N+](=O)[O-])n1)Nc1cc(Cl)ccc1O,-6,-6,-0.9,.,-14%,
CCCC(C)NC(=O)c1sc2nc3n(c(=O)c2c1C)CCC3 (stereo not drawn),-7,-4,-3.1,.,-8%,

# Structures shown so far that contain a nitro group on carbon (six):
SMILES,Mtb bLac sens,Arbovirus anti,RecA intein inh,YopH PTP inh,Mtb growth,others
COc1ccccc1Nc1nc(N(C)c2ccccc2)nc(N)c1[N+](=O)[O-],7,.,-1.4,.,.,
Cc1nc2ccc([N+](=O)[O-])cc2c(=O)n1Cc1ccc(Br)cc1,-1,.,2.0,.,.,
O=C(c1ccccc1)N1CCN(c2ccc([N+](=O)[O-])c(NCC3CCCO3)c2)CC1 (stereo not drawn),-5,-4,3.0,.,4%,
O=C(COC(=O)[C@@H]1CC(O)CN1S(=O)(=O)c1ccccc1[N+](=O)[O-])c1ccccc1 (stereo partly drawn),1,3,-0.1,.,1%,
C=CCNC(=S)NNC(=O)c1ccc([N+](=O)[O-])cc1,7,2,2.6,.,6%,
O=C(CCCn1cnc([N+](=O)[O-])n1)Nc1cc(Cl)ccc1O,-6,-6,-0.9,.,-14%,

# Source: PubChem BioAssay

# Some of the compounds tested, so the mix of outcomes need not match the whole.
